From PubChem BioAssay
Rev-RRE block: disrupts HIV-1 Rev binding to RRE RNA; P05866; Rev peptide-RRE RNA binding, FRET; 97,000 compounds, 0.79% hits; AID 704; inhibition, % at 8 µM;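 active = inhibition above the screen-wide mean plus 3 SD, cut at about 35% in these data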;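 note: 0% = median DMSO wells and 100% = median Neomycin B control wells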
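assay system = Cy5-tagged RRE RNA duplex with fluorescein-tagged Rev peptide | incubation = 5 + 15 min at 25 °C | also added = labelled Rev peptide | measure = % inhibition of FRET ratio versus controls | benchmarks = DMSO wells as 0% and neomycin B wells as 100% inhibition | measured by = FRET fluorescence readout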
S1P2 ag: S1P2 (human) receptor agonism. O95136. AID 729. activation, % at 4.5 µM. S1P2-expressing cell line, agonist reporter read-out. 97,000 compounds, 0.46% hits; in the data active = activation above about 16%;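 note: 0% = vehicle low control and 100% = maximal reference agonist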
PostGolgi ctrl: growth of the yeast control strain, post-Golgi counter-screen | 98,000 compounds, 5% hits | inhibition, % at 10 µM | efflux-deficient yeast background strain, growth absorbance A615, 16 h
LYP act: LYP (human) phosphatase activation; activation, % at 2 µM; AID 697; 96,000 compounds, 0.11% hits; recombinant LYP, DiFMUP fluorescence; 0 = plate median, 100 = signal doubled; Q9Y2R2;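 active = activation at 2 µM above a set limit, the mean plus 5 SD, cut at about 37% in these data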
S1P2 blocker: S1P2 (human) receptor antagonism; inhibition, % at 5 µM; 97,000 compounds, 0.21% hits; cell-based S1P2 antagonist assay, inhibition at 5 uM; AID 736; O95136; in the data active = inhibition above about 45%;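 note: CRE beta-lactamase reporter cells expressing human S1P2 stimulated with S1P; 0% = agonist at EC80 alone and 100% = agonist plus reference antagonist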
PTPN22 inh 2: LYP (human) phosphatase inhibition | Q9Y2R2 | recombinant LYP catalytic domain, DiFMUP fluorescence | inhibition, % at 2 µM | 96,000 compounds, 0.21% hits;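 active = inhibition at 2 µM at or above a set limit, the screen mean plus 3 SD, cut at about 24% in these data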;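 note: 0% = DMSO with enzyme and 100% = enzyme fully blocked by orthovanadate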
EphB4 ephrin blk: EphB4-ephrin-B2 interaction antagonism; P54760; EphB4 LBD / TNYL-RAW-Alexa532 peptide, fluorescence polarization; inhibition, % at 7 µM; 97,000 compounds, 0.15% hits;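 active = inhibition above the screen-wide mean inhibition plus 3 SD, cut at about 15% in these data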;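 note: 0% = DMSO wells and 100% = excess unlabeled TNYL-RAW peptide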
Target sequence (P54760 whole entry, looked up, the tested form may be a part): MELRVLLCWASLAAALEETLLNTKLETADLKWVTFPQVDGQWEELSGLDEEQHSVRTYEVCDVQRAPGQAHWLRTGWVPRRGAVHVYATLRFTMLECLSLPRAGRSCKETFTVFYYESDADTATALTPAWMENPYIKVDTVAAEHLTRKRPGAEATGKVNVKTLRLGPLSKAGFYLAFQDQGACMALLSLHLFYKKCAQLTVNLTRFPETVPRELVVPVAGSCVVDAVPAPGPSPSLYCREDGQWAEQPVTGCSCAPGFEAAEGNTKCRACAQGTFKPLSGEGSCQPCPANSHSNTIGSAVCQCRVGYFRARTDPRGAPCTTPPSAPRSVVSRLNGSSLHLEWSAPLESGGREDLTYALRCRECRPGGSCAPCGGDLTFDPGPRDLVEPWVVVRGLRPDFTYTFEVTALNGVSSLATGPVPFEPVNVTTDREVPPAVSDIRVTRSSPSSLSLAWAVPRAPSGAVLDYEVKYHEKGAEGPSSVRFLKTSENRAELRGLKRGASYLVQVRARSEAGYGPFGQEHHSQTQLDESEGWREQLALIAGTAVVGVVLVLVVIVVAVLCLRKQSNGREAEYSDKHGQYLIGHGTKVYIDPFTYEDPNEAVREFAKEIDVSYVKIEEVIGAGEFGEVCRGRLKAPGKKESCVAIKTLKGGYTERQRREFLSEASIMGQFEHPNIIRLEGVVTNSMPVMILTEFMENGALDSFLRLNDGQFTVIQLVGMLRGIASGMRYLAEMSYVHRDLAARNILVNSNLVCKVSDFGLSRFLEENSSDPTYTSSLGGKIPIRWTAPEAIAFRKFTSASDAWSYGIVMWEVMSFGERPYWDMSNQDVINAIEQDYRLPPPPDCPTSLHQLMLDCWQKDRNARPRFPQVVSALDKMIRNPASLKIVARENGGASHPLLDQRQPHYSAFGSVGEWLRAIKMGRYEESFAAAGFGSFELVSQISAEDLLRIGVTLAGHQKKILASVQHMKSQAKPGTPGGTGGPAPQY
PostGolgi yeast: growth inhibition of a yeast mutant, post-Golgi transport screen; post-Golgi transport phenotypic cell assay; inhibition, % at 10 µM; 98,000 compounds, 0.9% hits; AID 739;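 note: yeast cells grown in 1536-well plates; yeast grown about 18 h at 30C before absorbance read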
The depositor's hits bear a star; x = no result given. Cut-off read from the data, not from the text of the source, unless noted: active = inhibition above about 30%; inactive = the rest. Not all compounds are listed; count on the stated rates, not on these rows.

SMILES	Rev-RRE block	S1P2 ag	PostGolgi ctrl	LYP act	S1P2 blocker	PTPN22 inh 2	EphB4 ephrin blk	PostGolgi yeast
Cc1ccc(C)c(NS(=O)(=O)c2cc(C(=O)N3CCc4ccccc4C3)ccc2Cl)c1	-3	-7	71*	9	0	-7	-7	104*
COc1ccc(NC(=O)NCc2cccn2C)c(OC)c1	-1	-4	6	8	-6	-9	-2	-3
CC1(C)Cc2ccccc2C(/C(=N/O)C(N)=O)=N1	2	1	1	-9	16	8	2	-3
CCOC(=O)CNC(=O)CSc1nnc(COc2ccc(Cl)cc2)n1CC	-2	-5	-7	19	5	-22	-8	-3
O=C(Nc1ccc2oc(-c3cccnc3)nc2c1)c1cc2ccccc2o1	2	-8	5	-12	-13	12	-2	-2
CCc1c(C)nc2[nH]nc(-c3ccccc3)n2c1=O	1	-2	-3	7	-3	-8	-6	1
O=C(Nc1ccccc1C(=O)O)c1cccc(NC(=O)c2ccc(Br)o2)c1	3	0	-6	-7	-2	5	0	-4
COc1ccc(Cl)cc1N(CC(=O)Nc1ccccc1C(=O)NCc1ccco1)S(C)(=O)=O	4	-7	14	2	0	-1	-5	0
Cc1ccc(CNc2nc3ccc(C)cc3n3cnnc23)cc1	9	-4	12	-9	-35	7	5	4
CC(C)Cn1c(N)c(C(=O)COC(=O)c2cc(-c3ccco3)nc3ccccc23)c(=O)n(C)c1=O	-20	-1	0	23	-22	-27	-7	-8
Cc1cc(NC(=O)CSc2nnc(C3CC3)n2Cc2ccccc2)no1	2	1	3	10	-18	-12	1	6
CC(=O)C1=C(O)C(=O)N(CCC(=O)O)C1c1ccc(Cl)cc1Cl (centres undefined)	9	-6	11	0	12	2	-3	-3
Cc1cc2ccccc2nc1SCC(=O)N1CCCC1	-3	-8	8	-8	-20	7	-8	-7
O=c1cc(O)nc(SCc2ccccc2Cl)[nH]1	5	-11	9	-2	15	2	-5	17
O=C1CCCCC1C(Nc1ccc(Cl)cc1)c1ccccc1 (centres undefined)	14	-3	23	-4	13	5	7	0
O=C(CSCc1ccc(F)cc1)Nc1nc2c(s1)CCCC2	6	-2	17	4	-4	-6	-6	-8
Cc1sc2c(c1C)c(=O)nc1n2Cc2ccccc2-1	4	-5	1	7	-8	-6	3	14
O=C(Nc1ccncc1)c1ccccc1F	12	-7	42*	2	34	-4	0	-7
Cc1c(C(=O)Nc2ccc3c(c2)OCO3)sc2ncn(CC(=O)N3CC(C)CC(C)C3)c(=O)c12 (centres undefined)	13	-3	2	-10	-6	8	0	-6
CC(C)c1nc2n[nH]c(N)c2c2c1CCCC2	10	1	20	0	-7	0	2	-7
O=S(=O)(NC1CCCCC1NCc1ccco1)c1ccccc1 (centres undefined)	0	-10	-10	-2	-7	-2	-8	4
CCn1c(CCNC(=O)c2ccc(Cl)cc2)nnc1SCC(=O)NC1CCCC1	8	-8	1	-5	0	8	4	-1
O=C(CCCn1c(=S)[nH]c2ccccc2c1=O)N1CCN(c2cccc(Cl)c2)CC1	-3	-11	4	0	-12	2	2	9
COC(=O)C1=C(CSc2nncn2C)NC(=O)NC1c1cc(C)ccc1C (centres undefined)	8	-4	1	-7	-2	10	5	17
CCCCCC(=O)Nc1cc2[nH]c(=O)cc(COC)c2cc1C	9	-5	-4	-3	13	5	2	4

Some of the entries so far, as labelled records.
> Cc1cc(NC(=O)CSc2nnc(C3CC3)n2Cc2ccccc2)no1
  Rev-RRE block: 2
  S1P2 ag: 1
  PostGolgi ctrl: 3
  LYP act: 10
  S1P2 blocker: -18
  PTPN22 inh 2: -12
  EphB4 ephrin blk: 1
  PostGolgi yeast: 6
> CC(=O)C1=C(O)C(=O)N(CCC(=O)O)C1c1ccc(Cl)cc1Cl (centres undefined)
  Rev-RRE block: 9
  S1P2 ag: -6
  PostGolgi ctrl: 11
  LYP act: 0
  S1P2 blocker: 12
  PTPN22 inh 2: 2
  EphB4 ephrin blk: -3
  PostGolgi yeast: -3
> Cc1cc2ccccc2nc1SCC(=O)N1CCCC1
  Rev-RRE block: -3
  S1P2 ag: -8
  PostGolgi ctrl: 8
  LYP act: -8
  S1P2 blocker: -20
  PTPN22 inh 2: 7
  EphB4 ephrin blk: -8
  PostGolgi yeast: -7

Laid out differently: entries from further up
mol: O=C(Nc1ccccc1C(=O)O)c1cccc(NC(=O)c2ccc(Br)o2)c1
  Rev-RRE block: 3 | S1P2 ag: 0 | PostGolgi ctrl: -6 | LYP act: -7 | S1P2 blocker: -2 | PTPN22 inh 2: 5 | EphB4 ephrin blk: 0 | PostGolgi yeast: -4

mol: COc1ccc(Cl)cc1N(CC(=O)Nc1ccccc1C(=O)NCc1ccco1)S(C)(=O)=O
  Rev-RRE block: 4 | S1P2 ag: -7 | PostGolgi ctrl: 14 | LYP act: 2 | S1P2 blocker: 0 | PTPN22 inh 2: -1 | EphB4 ephrin blk: -5 | PostGolgi yeast: 0

Quoted at random: three records from the list
SMILES	Rev-RRE block	S1P2 ag	PostGolgi ctrl	LYP act	S1P2 blocker	PTPN22 inh 2	EphB4 ephrin blk	PostGolgi yeast
CCn1c(CCNC(=O)c2ccc(Cl)cc2)nnc1SCC(=O)NC1CCCC1	8	-8	1	-5	0	8	4	-1
Cc1ccc(C)c(NS(=O)(=O)c2cc(C(=O)N3CCc4ccccc4C3)ccc2Cl)c1	-3	-7	71*	9	0	-7	-7	104*
CCOC(=O)CNC(=O)CSc1nnc(COc2ccc(Cl)cc2)n1CC	-2	-5	-7	19	5	-22	-8	-3

Remaining list, next part
SMILES	Rev-RRE block	S1P2 ag	PostGolgi ctrl	LYP act	S1P2 blocker	PTPN22 inh 2	EphB4 ephrin blk	PostGolgi yeast
Cn1c(=O)c2c(nc(-n3ccnc3)n2Cc2ccc(Cl)cc2Cl)n(C)c1=O	2	-7	6	5	14	-9	10	-1
Clc1ccc(CO/N=C/c2c(-c3ccccc3)nc3n2CCS3)c(Cl)c1	5	-16	18	11	10	-8	-1	23
Cn1nccc1C(=O)NC(=S)Nc1sc2c(c1C#N)CCCCC2	3	-4	-5	3	1	-5	-7	10
COc1ccc(OC)c(CN(CCCN2CCOCC2)S(=O)(=O)c2ccc(NC(C)=O)cc2)c1	5	-6	5	-5	-5	8	2	-3
CC(Sc1nncs1)C(=O)NCc1ccc2c(c1)OCO2 (centres undefined)	0	-2	1	1	-10	-3	-6	-6
COc1cc2c(cc1OC)CN(C(=O)C(C)(C)C)CC2	4	-8	-3	-2	-10	2	7	-4
Cc1nnc(NC(=O)c2ccco2)s1	8	-1	10	5	-10	-7	-4	-14
Nc1c(C(=O)Nc2ccccc2F)sc2nc(-c3ccco3)ccc12	32	-8	9	1	34	3	1	1
N#CC(c1ccccn1)(c1ncc(C(F)(F)F)cc1Cl)N1CCOCC1 (centres undefined)	3	-7	-7	-10	9	12	3	-9
COC(=O)CSc1nnc(-c2ccco2)n1-c1ccc(C)cc1	-1	-7	7	4	18	-5	-1	-1
CCCCNc1nc(N(C)c2ccccc2)nc(-n2ccnc2)n1	12	11	69*	-5	-14	6	3	96*
COc1ccc(CCN2C(=O)c3[nH]nc(-c4ccccc4O)c3C2c2ccccc2)cc1OC (centres undefined)	7	-5	5	11	-11	-13	2	-1
Cc1cc(C)c(S(=O)(=O)Nc2ccc(-c3cn4ccccc4n3)cc2)c(C)c1	0	-1	28	-9	-18	7	-2	5
CCCCCCCSc1nsc(N)n1	17	4	x	2	-6	-1	2	x
C=CCNc1nc(N(c2ccccc2)c2ccccc2)nc(-n2ccnc2)n1	2	5	35*	1	-33	0	2	-1
CCn1c(COc2ccc(Cl)cc2)nnc1SCC(=O)Nc1ccc2c(c1)OCO2	10	-7	-1	-4	-17	2	4	-5
CCCCn1nnnc1NCc1cccnc1	5	-2	5	-1	-8	0	-3	-4
O=C(Nc1ccc2oc(-c3cccnc3)nc2c1)c1ccco1	0	3	-5	18	4	-16	-3	-9
COc1ccc(C(=O)O/N=C(/C)c2cccs2)cc1	6	-5	6	11	11	-11	4	4
CCCOc1cccc(C(=O)Nc2cccc(NC(=O)c3ccco3)c2)c1	7	-4	20	4	10	-5	-5	-13
O=C(/C=C/NNC(=O)c1cccc(Br)c1)c1cccc(Br)c1	9	-8	18	3	19	-3	8	-6
COCc1cc(=O)[nH]c2cc(NC(=O)C3CC3)c(C)cc12	2	-2	5	2	1	2	-6	-10
CCOC(=O)CSc1ccc2nnc(-c3cccnc3)n2n1	9	-1	1	3	-1	-4	0	3
CSc1ccccc1NC(=O)c1c(Br)cnn1C	0	-1	4	9	-15	-7	-4	4
COC(=O)/C(NC(C)=O)=C(\C)c1ccc(Cl)cc1	1	-9	x	0	-18	-1	4	x
SMILES	Rev-RRE block	S1P2 ag	PostGolgi ctrl	LYP act	S1P2 blocker	PTPN22 inh 2	EphB4 ephrin blk	PostGolgi yeast
CCCCc1nc(NCC2CCCO2)c(C#N)c2c1COC(C)(C)C2 (centres undefined)	4	0	96*	-2	-3	-2	2	2
CCn1c(NC(=O)c2cccs2)nc2ccccc21	6	-4	11	-1	27	0	7	-4
Cc1cc(C)c(-c2noc(C(=O)OC(C)(C)C)c2C(=O)OC(C)(C)C)c(C)c1	14	-3	-2	4	10	1	0	5
CCOC(=O)Cn1c(C)cc(=O)c2cccc(C)c21	4	0	-7	0	8	0	-3	2
COc1cc2c(cc1NC(=O)C(C)Sc1ccc(C)cc1)oc1ccccc12 (centres undefined)	15	-6	10	7	3	-5	-6	-12
O=C(CSc1nnc2c(Cl)cc(C(F)(F)F)cn12)Nc1ccc2c(c1)OCO2	-3	-5	10	5	-7	-8	-2	14
COc1ccc(C(=O)CSc2nnc(CCc3ccccc3)n2-c2ccccc2)cc1	2	-5	26	6	1	-2	-5	-5
N#Cc1nc(Cc2ccccc2)oc1N1CCC(C(N)=O)CC1	-2	-3	-6	-6	9	7	-5	6
Cc1ccc(OCC(=O)Nc2ccc(-c3nnc(-c4ccco4)o3)cc2)cc1	7	-4	27	-4	6	4	4	-2
CCCc1nc2ccccc2n2cc3c(=O)n(C)c(=O)n(C)c3c12	2	3	x	-14	-5	12	-2	x
